NPYLR7 agonist: agonists of mosquito NPYLR7 receptor, primary screen, cell-based, Aedes aegypti, calcium fluorescence, mosquito biting behavior; HEK293T NPYLR7/Galpha15, GCaMP6s calcium fluorescence; Aedes aegypti neuropeptide Y-like receptor 7 (NPYLR7); 270,000 compounds, 0.15% hits; activation, % at 10 µM; in the data active = activation above about 40%;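 also: 0% = vehicle and 100% = reference agonist at the receptor; some compounds past the cut are filed as inactive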
NPYLR7 agonist max-min: second read-out of NPYLR7 agonist, no call of its own (marks repeat the call); activation, %; measured here: Max-Min RFU normalised activation; some inactives read as strong as hits;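 span of the calcium signal over five minutes; 0% = vehicle and 100% = native peptide agonist; compound fluorescence can raise it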
* marks the source's active call; other numbers are inactive results; & = joins results of further samples. An excerpt (hit frequency here may not be typical).

SMILES	NPYLR7 agonist	NPYLR7 agonist max-min
Nc1nc(SCc2cccc([N+](=O)[O-])c2)[nH]c(=O)c1NC(=O)c1ccccc1	-7	-10
CC(c1cccc(-c2ccc(CN3CCOCC3)cn2)c1)N1CCCC1 (stereo not drawn)	-1	-3
COc1ccc(-c2cc(C(=O)N3CCC(Cc4ccccc4)CC3)c(C)n2-c2ccccc2Cl)cc1	12	20
CCC(C)C(NC(=O)c1ccccc1)C(=O)NCc1ccccc1F (stereo not drawn)	0	-3
Cc1ccc(C)c(S(=O)(=O)N2CCN(CC(=O)Nc3ccc4c(c3)OCO4)CC2)c1	-3	-5
COc1ccc(OC)c(C2C(C(=O)OC(C)C)=C(C)NC3=C2C(=O)CCC3)c1 (stereo not drawn)	8	11
CCOc1ccc(S(=O)(=O)NC2CCN(C3CC3)C2)c2ccccc12 (stereo not drawn)	7	4
Cc1ccc(C(=O)Oc2coc(CSc3nncn3C)cc2=O)cc1	-7	-11
CCC(C(=O)Nc1c(-c2cc(C)cc(C)c2)nc2cc(C)ccn12)c1ccccc1 (stereo not drawn)	-9	-8
COc1ccc2c(c1)CCc1cnc(-n3ncc(C(=O)NCc4ccc5c(c4)CCCN5C)c3C)nc1-2	25	10
CCC(COC)NC(=O)c1ccc(-c2n[nH]c3c2COc2ccccc2-3)cc1 (stereo not drawn)	34	22
O=S(=O)(Nc1cccc(C#Cc2ccccc2)c1)c1ccc(S(=O)(=O)N2CCOCC2)cc1	-5	-5

As a short view, part of the list above.
SMILES	NPYLR7 agonist	NPYLR7 agonist max-min
CC(c1cccc(-c2ccc(CN3CCOCC3)cn2)c1)N1CCCC1 (stereo not drawn)	-1	-3
COc1ccc(-c2cc(C(=O)N3CCC(Cc4ccccc4)CC3)c(C)n2-c2ccccc2Cl)cc1	12	20
CCC(C)C(NC(=O)c1ccccc1)C(=O)NCc1ccccc1F (stereo not drawn)	0	-3
Cc1ccc(C)c(S(=O)(=O)N2CCN(CC(=O)Nc3ccc4c(c3)OCO4)CC2)c1	-3	-5
COc1ccc(OC)c(C2C(C(=O)OC(C)C)=C(C)NC3=C2C(=O)CCC3)c1 (stereo not drawn)	8	11
CCOc1ccc(S(=O)(=O)NC2CCN(C3CC3)C2)c2ccccc12 (stereo not drawn)	7	4
Cc1ccc(C(=O)Oc2coc(CSc3nncn3C)cc2=O)cc1	-7	-11

(listing goes on)
SMILES	NPYLR7 agonist	NPYLR7 agonist max-min
Cc1cc(Cl)ccc1NC(=O)CCn1c(=O)n(C)c2ccccc21	2	0
CCOC(=O)Cc1csc(NC(=O)COc2ccc(OC)cc2)n1	-13	-14
O=C(COC(=O)c1n[nH]c(=O)c2ccccc12)Nc1ccc2c(c1)CCC2	3	2
CN(C(=O)CCc1nnc(-c2ccc(-c3ccccc3)cc2)o1)C1CCOCC1	4	1
COCC(C)N(Cc1ccccc1OC)C(=O)c1cnn2ccccc12 (stereo not drawn)	7	6
COc1ccc(N2CCN(C(=O)c3cc(-c4ccccc4OC)nc4cc(-c5ccc(Cl)cc5)nn34)CC2)cc1	11	8
O=C1NC2(CCCCCC2)C(=O)N1CN(C1CC1)C1CCc2ccccc21 (stereo not drawn)	8	6
CCN1CCN(C(=O)c2ccc(CSc3nnc(-c4ccc([N+](=O)[O-])cc4)n3-c3ccc(C)cc3)cc2)CC1	-11	1
CCOC(=NCCN1CCOCC1)NC(=O)c1ccc(F)cc1	-2	4
CCOC(=O)c1nn(-c2ccc(C)cc2)c(=O)cc1N1CCN(C(C)=O)CC1	9	5
CC(=O)Nc1nn(C)c2c1CC(C)C(=O)N2 (stereo not drawn)	-14	-21
NC(=O)c1ccc2[nH]ccc2c1	-6	-13
CCOC(=O)NNS(=O)(=O)c1cc(C)sc1C	9	2
CC1=NNc2nc3c(c(=O)n(Cc4cc(C)ccc4C)c(=O)n3C)n2C1C (stereo not drawn)	-7	-7
CCN(CC)CCCC(C)NC(=O)c1cc(-c2ccccc2F)nc2cc(C(C)(C)C)nn12 (stereo not drawn)	11	16
O=C(Nc1ccc2nc(C3CC3)sc2c1)C(=O)NC1CCCCCCC1	-1	-7
CCOc1ccc(C(c2c(O)cc(C)n(CC)c2=O)c2c(O)cc(C)n(CC)c2=O)cc1	4	5
CN1CCOC(CNC(=O)CCCCc2ccc(Br)cc2)C1 (stereo not drawn)	1	17
CCCCC(C(N)=O)N1CCC(Oc2ccccn2)C1 (stereo not drawn)	3	1
COc1ccc(CN(C(=O)Nc2cccc(Br)c2)C(C)C)cc1OS(C)(=O)=O	3	12
O=C(COc1ccc(-c2ccccc2)cc1)N1CCN(C(=O)C2CC2)CC1	2	1
FC(F)(F)c1cnc(-n2nnc3ccccc32)c(Cl)c1	1&2	0&7
Cc1ccc(C)c(-c2csc(NC(=O)c3ccc(=O)n(C)n3)n2)c1	-3	-3
c1ccc(CCCC2CN(C3CCN(Cc4ccco4)CC3)CCO2)cc1 (stereo not drawn)	17	6
O=C(CCOCC(F)(F)F)NC/C=C/c1ccccc1	-7	-8
O=C(O)CN1C(=O)C2C3C=CC(C4CC34)C2C1=O (stereo not drawn)	0	-1
O=C(Cc1ccsc1)N1CCC(n2c(Cc3ccccc3)nc3ccccc32)CC1	5	18
O=C1C(=O)N(CCN2CCOCC2)C(c2ccc(Cl)cc2)C1=C(O)c1ccccc1 (stereo not drawn)	0	5
COc1cccc(C(=O)Nc2ccc(-n3nc(OC)nc3-c3ccc(C)cc3)cc2)c1	42	31
O=C(CCn1ccnc1)N1CCN(S(=O)(=O)c2cc(C(F)(F)F)ccc2Cl)CC1	19	13
CCCCn1c(=O)n(Cc2ccc(C#N)cc2)c(=O)c2c1nc(CO)n2CCC	-1	-9
CCN1CCC(C(=O)NC(c2ccc(Cl)cc2)c2ncccc2C)CC1 (stereo not drawn)	9	-2
Cc1ccc(Nc2ccc(N3CCN(C(=O)CC(C)(C)C)CC3)nn2)cc1	3	3
Cc1ccc(S(=O)(=O)NC(=O)C2(C)CCN2C(=O)CC2CC2)cc1 (stereo not drawn)	-2	-4
CC(C)COC(=O)C1C2C=CC3(CN(CC4CCCO4)C(=O)C13)O2 (stereo not drawn)	-3	-4
COc1ccccc1N=c1scc(-c2ccco2)n1N=Cc1ccco1	6	5

Taken from above.
Result of O=C(CCOCC(F)(F)F)NC/C=C/c1ccccc1 under NPYLR7 agonist max-min: -8
Result of CC(C)COC(=O)C1C2C=CC3(CN(CC4CCCO4)C(=O)C13)O2 (stereo not drawn) under NPYLR7 agonist max-min: -4
Result of Cc1ccc(Nc2ccc(N3CCN(C(=O)CC(C)(C)C)CC3)nn2)cc1 under NPYLR7 agonist max-min: 3
Result of CCN1CCC(C(=O)NC(c2ccc(Cl)cc2)c2ncccc2C)CC1 (stereo not drawn) under NPYLR7 agonist max-min: -2
Result of O=C(O)CN1C(=O)C2C3C=CC(C4CC34)C2C1=O (stereo not drawn) under NPYLR7 agonist: 0
Result of CCCCn1c(=O)n(Cc2ccc(C#N)cc2)c(=O)c2c1nc(CO)n2CCC under NPYLR7 agonist max-min: -9
Result of O=C1C(=O)N(CCN2CCOCC2)C(c2ccc(Cl)cc2)C1=C(O)c1ccccc1 (stereo not drawn) under NPYLR7 agonist: 0

New compounds follow:
SMILES	NPYLR7 agonist	NPYLR7 agonist max-min
Cc1ccc(COc2ccc(CNc3nnnn3C)cc2)cc1	0	-2
O=C(CN1CCN(c2cc(Oc3ccc(F)cc3)ncn2)CC1)N1CCCC1	-4	-4
NC(=O)COc1c(Cl)cc(Cl)cc1Br	0	0
Oc1cc(-c2cccc(Cl)c2)cc2c1OCCN(CCn1cccc1)C2	5	4
CCCSc1nc(-c2ccccc2)cc(-c2ccc(OC)cc2)c1C#N	-1	-6
c1cc(-c2ccc(NC3CC3)nn2)c2cc[nH]c2c1	20	6
Cc1ccc(-c2nn(-c3cc(N4CCN(C)CC4)ccc3[N+](=O)[O-])c(=O)c3ccccc23)cc1C	-3	-8
Cc1ccccc1CC(C1CCN(C(=O)/C=C/c2ccccc2)CC1)N(C)C(=O)C1CCC1 (stereo not drawn)	29	15
O=C(OCc1ccccc1)c1ccccc1	-7	-10
O=c1oc2ccccc2cc1-c1nnc(Nc2ccc(Oc3ccc(Cl)cc3)cc2)s1	2	5
O=C(N/N=C\c1ccco1)c1cc(-c2cc(Cl)cc(Cl)c2)n[nH]1	1	3
COc1ccc(S(=O)(=O)N(CC(=O)N(Cc2ccccc2)Cc2ccccc2)c2ccc(C)cc2)cc1OC	19	16
COC(=O)Cn1c(=O)c2c(nc3n2CCCN3Cc2ccccc2)n(C)c1=O	16	4
COC(=O)c1ccc(CNCc2ccc3[nH]c(C)c(C)c3c2)cc1	16	3
O=[N+]([O-])c1c(-n2cccn2)nn(-c2ccccc2)c1C(Cl)Cl	-11	-14
Cc1cc(NC(=O)c2ccc(Cl)c(N3CCNC3=O)c2)ccn1	0	0
Fc1ccc(-c2[nH]ncc2CNC23CC4CC(C2)CC(n2cncn2)(C4)C3)cc1	8	3
CN(Cc1ccc(-c2ccn[nH]2)s1)Cc1cccc2ncccc12	-4	-9
CN(C(=O)C1CCCc2[nH]ncc21)C(c1ccc(F)cc1)C1CC1 (stereo not drawn)	-25	-28
CCOC1CCN(c2ccc(S(N)(=O)=O)cc2C(=O)OC)CC1	6	4
COCCNc1c(Cc2ccccc2)c(C)nc2c(-c3ccccc3)c(C)nn12	-2	-6
CCOC(=O)C(N=Nc1cccc([N+](=O)[O-])c1)=C(C)O	-7	-12
COCCCN1C(=O)N(Cc2ccccn2)C(=O)C12CCN(Cc1ccc(SC)cc1)CC2	-4	-8
COc1ccc(CCOc2nc(-c3cccc(F)c3)n(-c3ccc(NC(=O)c4ccc([N+](=O)[O-])cc4)cc3)n2)cc1	-1	1
Cc1ccc(NC(=O)NCCC2CN(C3CCOCC3)CCO2)cc1 (stereo not drawn)	1	-2
Cc1cncc(C(=O)NCC2CCN(Cc3ccccc3F)C2)c1 (stereo not drawn)	3	3
Cc1ccc(NC(=O)Cn2nc(C)c3ccccc3c2=O)c(C)c1	21	10
CCOC(=O)N1CCC(NCc2cc3cc4c(cc3n(Cc3cccc(F)c3)c2=O)OCO4)CC1	17	9
O=C(c1cccc2c1OCC2)N(CCO)Cc1cccs1	21	16
Cc1[nH]c2ccc(Cl)cc2c1CCNC(=O)C1CC2(CCNCC2)CN1 (stereo not drawn)	18	4
NC(=O)c1c(NC(=O)c2ccc(Br)o2)sc2c1CCCCC2	1	1
COc1cc(OC)cc(-c2n[nH]c(=S)n2-c2ccccc2C)c1	15	11
CN1CCc2c(sc3c2C(=O)NC(c2ccc(-c4ccccc4[N+](=O)[O-])o2)N3)C1 (stereo not drawn)	-10	-20
CCc1c(C)nn(CC(=O)N2CCC3(CCCO3)CC2)c1C	-8	-9
Cc1ccc(C(=O)COc2ccc(S(C)(=O)=O)cc2)cc1C	4	2
O=C(Cn1[nH]c(=O)ccc1=O)N1CCN(S(=O)(=O)c2ccc3c(c2)CCCC3)CC1	-1	2
O=C(Cc1ccccc1)Nc1ccc(Nc2ccc(-n3cccn3)nn2)cc1	-1	-4
CC1(Cc2ccc(C(F)(F)F)o2)C(=O)Nc2ccc(-c3cccc(C(F)(F)F)c3)cc21 (stereo not drawn)	4	1
CC1CC(C)N(C(=O)c2ccc(C(=O)NC(C)(C)C)cc2)C1 (stereo not drawn)	6	3
COCC(=O)Nc1cc(C(=O)N2CCN(c3ccc(Cl)cn3)CC2)c2c(c1)nc(C1CCC1)n2C	6	5
Cc1cc(C)n2c(NCc3ccccc3)c(-c3ccccc3F)nc2c1	2&-4	7&4
Cc1ccc(S(=O)(=O)N2CCCC(c3nc4ccccc4c(=O)[nH]3)C2)s1 (stereo not drawn)	-1	-5
Cc1cc(-n2c(C)cc(C(=O)Cn3cnc4sc5c(c4c3=O)CCCC5)c2C)no1	5	2
CCc1ccc(-n2nnc(C(=O)N3CCCc4ccccc43)c2C)cc1	-3	-7
CCOc1ccc(N=C2NC(=O)C(CC(=O)c3ccccc3)S2)cc1 (stereo not drawn)	-3	-6
Cc1ccc(CNC(=O)CCC2CCCN(C(=O)c3ccc(F)c(Cl)c3)C2)o1 (stereo not drawn)	5	0
O=S(=O)(c1ccc(F)cc1)N1CCCN(Cc2cc3c(cc2O)OCO3)CC1	-3	-6
CC(=O)c1sc(=Nc2ccc(C)cc2)n(N2CCOCC2)c1C	-8	-13
COCCCNc1nc2nonc2nc1N1CCC(N2CCSCC2)CC1	3&1	7&1
NC(=O)CN1CCC(C(=O)NCc2ccc3[nH]c4c(c3c2)CCCCC4)CC1	8	-6
O=C(CNC(=O)c1ccc2c(c1)OCCO2)N=Nc1c(O)n(Cc2ccc3c(c2)OCO3)c2ccccc12	-4	-8
CN1CCN(c2cc(Oc3ccc(F)cc3)ncn2)CC1	-8	-2
Cc1ccc(C(=O)N(C)[C@@H](C)C(=O)O)cc1NC(=O)C1CCCC1	-9	-16
CCOc1ccc2ccccc2c1/C=N\N1C(=O)C2C3C=CC(CC3)C2C1=O (stereo not drawn)	-9	-15
CCNC(=O)CSc1nnc(N2CCCCC2)n1-c1ccc(C)cc1	3	4
O=C(NCCN1CCOCC1)c1nn(-c2ccccc2F)c(=O)n(Cc2cccc(C(F)(F)F)c2)c1=O	10	9
CCOC(=O)C1(CCOc2ccccc2)CCN(C(=O)Nc2ccc(C)cc2C)CC1	10	10
S=C(N=P(c1ccccc1)(N1CCOCC1)N1CCOCC1)Nc1ccc(Cl)cc1	20	33
COc1cccc2cc(C(N)=O)c(=Nc3ccccc3)oc12	-4	-5
COc1ccc(C(=O)Nc2ccc(-c3c(-c4ccc(N(C)C)cc4)nn(-c4cccc(C)c4C)c3OC(C)=O)cc2)cc1	0	8

The list goes on.
SMILES	NPYLR7 agonist	NPYLR7 agonist max-min
Cc1ccc(/C=C/S(=O)(=O)NCCCn2nc(-c3ccc(C)cc3)ccc2=O)cc1	4	4
OCCOCCn1cnc(-c2ccccc2)c1-c1ccc(O)c(Cl)c1	19	10
CCN(CC)c1ccc(CN(C(=O)NC(C)(C)C)C2CC2)c(OS(C)(=O)=O)c1	18	27
O=C(O)c1cc2c(c(-c3cc(=O)c4cc(Cl)ccc4o3)c1)OCOC2	7	4
C/C(=C\C(=O)Nc1ccc(Br)cc1Br)C(=O)O	-2	14
CCc1nc2ccc(C(=O)Nc3cc(-c4ccccc4)ccc3OC)cn2c1N(C)Cc1cccs1	7	-2
